# Compound activity from PubChem BioAssay.
# CtBP-E1A blk: blocks the CtBP interaction with E1A; 340,000 tested, 0.49% active; activity change, % (concentration not given with the values); AID 651724; AlphaScreen GST-E1A/His-CtBP binding, 1536-well; active compounds read low; control for the full effect not named in the record; in the data active means activity change below about -65%; inconclusive means about -30% to -65%; inactive means above about -30%; further: on the % scale 0 is the no-effect control and ±100 the full control effect
#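 GST-E1A and His-tagged CtBP (125 nM each as 5X stock) were preincubated with pin-transferred compound for 2 h at 37 °C in the dark, then glutathione donor and nickel acceptor beads were added for 1 h before AlphaScreen reading.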
# Menin MLL FP FL: displaces fluorescein MLL peptide from human menin; Fluorescence polarization, fluorescein-MLL peptide displacement from menin; FP activity change, % at 61.4 µM; 290,000 tested, under 10 active; AID 1766; inconclusive = falling polarisation curve, or a change in total fluorescence; inactive = total fluorescence flat and polarisation flat or rising; no compound was filed as active; the % refers to the polarisation; negative = inhibition;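 further: % of control where 0% means no effect; inhibitors lower the polarisation; unlabelled MLL peptide was the positive control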
# gsp antag: antagonizes gsp, the McCune-Albright syndrome mutation; 340,000 tested, 0.4% active; AID 624288; gsp-mutant cells, cAMP HTRF, 30 min; control for the full effect not named in the record; Potency, µM (top dose mostly 76.9 µM), without a hit: at the top dose activity change, negative = inhibition, most hits filed as inhibitors; active = falling curve of any shape with a large fitted effect; inconclusive = falling curve, mostly with a smaller effect; inactive = flat or rising curve; cell line not stated here;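 further: intracellular cAMP measured with PDE inhibitor Ro 20-1724 present during compound exposure; potency means the concentration at half of the fitted maximal effect; on the % scale 0 is the no-effect control and ±100 the full control effect; nearly all actives have a fitted effect of over 65% in size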
#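 Cells, 2000/well, grown 16–24 h in DMEM 10% FBS with 0.5 mg/ml G418, then compounds plus […] (300 uM addition stock), 30 min at 37C. cAMP read by HTRF (cAMP-d2 and anti-cAMP antibody-K in lysis buffer) after 30 min RT.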
# gsp agonist: gsp mutant agonism. gsp mutant cells, cAMP HTRF, 30 min; control for the full effect not named in the record. Potency, µM (titrated, usually from 76.9 µM), without a hit: at the highest dose activation (cAMP increase), hits mostly activators. 340,000 tested, 0.13% active. AID 624287; active = well fitted activation curve with a large enough effect; inconclusive = small, poorly fitted or top-dose-only effect, or another doubt; inactive = no such curve, though single readings can be large or run the other way; cell line not stated here;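 further: phosphodiesterase inhibitor Ro 20-1724 added with compounds to block cAMP breakdown; potency means the concentration at half of the fitted maximal effect; nearly all actives have a fitted effect of over 60% in size; about a fifth of the inactives were tested at one dose only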
#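 Cells in DMEM/10% FBS with G418 were pretreated with compounds in DMSO plus […] (300 uM stock) for 30 min at 37C. cAMP was measured by HTRF (cAMP-d2 plus anti-cAMP antibody-K) after 30 min at room temperature.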
# ClpP mod: qHTS Assay for Activators of ClpP; ATP-dependent Clp protease proteolytic subunit (Bacillus subtilis (strain 168)), P80244; purified B. subtilis ClpP, FRET peptide cleavage, 20 min; Potency, µM (doses to about 57.5 µM), inactives show at the highest dose activity change, negative = active; 340,000 tested, 1.9% active; active = well fitted falling curve with a large enough effect; inconclusive = small, poorly fitted or top-dose-only effect; inactive = no such curve, though single readings can be large or run the other way; further: potency means the concentration at half of the fitted maximal effect; the source files actives as falling curves though it sought activators and does not explain the sign; nearly all actives have a fitted effect of over 65% in size; many hits overshoot -100%
# Target sequence (P80244 whole entry, looked up): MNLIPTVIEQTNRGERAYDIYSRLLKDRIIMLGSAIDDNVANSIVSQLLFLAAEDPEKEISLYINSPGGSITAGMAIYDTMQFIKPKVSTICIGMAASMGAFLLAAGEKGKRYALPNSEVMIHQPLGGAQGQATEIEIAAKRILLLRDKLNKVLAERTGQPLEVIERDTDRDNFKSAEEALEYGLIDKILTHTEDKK
#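 Buffer: 100 mM Tris/HCl pH8, 100 mM KCl, 0.05% low protease BSA, 2.5% glycerol, 0.01% Tween-20. ClpP 10 microg/mL final; 20 min RT; delta FRET normalized to ADEP and DMSO controls.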
# TRPV1 potentiator: enhances activation of the human vanilloid receptor TRPV1 | 320,000 tested, 0.02% active | potentiation, % at 8.33 µM | Q8NER1 | AID 540277 | TRPV1-expressing cells, Fluo-8 calcium influx, capsaicin EC20 potentiation; host cell line not named in the record; control for the full effect not named in the record; active means potentiation above 80%; inconclusive means 30% to 80%; inactive means below 30%; further: 0% is about no effect
# Target sequence (Q8NER1 whole entry, looked up): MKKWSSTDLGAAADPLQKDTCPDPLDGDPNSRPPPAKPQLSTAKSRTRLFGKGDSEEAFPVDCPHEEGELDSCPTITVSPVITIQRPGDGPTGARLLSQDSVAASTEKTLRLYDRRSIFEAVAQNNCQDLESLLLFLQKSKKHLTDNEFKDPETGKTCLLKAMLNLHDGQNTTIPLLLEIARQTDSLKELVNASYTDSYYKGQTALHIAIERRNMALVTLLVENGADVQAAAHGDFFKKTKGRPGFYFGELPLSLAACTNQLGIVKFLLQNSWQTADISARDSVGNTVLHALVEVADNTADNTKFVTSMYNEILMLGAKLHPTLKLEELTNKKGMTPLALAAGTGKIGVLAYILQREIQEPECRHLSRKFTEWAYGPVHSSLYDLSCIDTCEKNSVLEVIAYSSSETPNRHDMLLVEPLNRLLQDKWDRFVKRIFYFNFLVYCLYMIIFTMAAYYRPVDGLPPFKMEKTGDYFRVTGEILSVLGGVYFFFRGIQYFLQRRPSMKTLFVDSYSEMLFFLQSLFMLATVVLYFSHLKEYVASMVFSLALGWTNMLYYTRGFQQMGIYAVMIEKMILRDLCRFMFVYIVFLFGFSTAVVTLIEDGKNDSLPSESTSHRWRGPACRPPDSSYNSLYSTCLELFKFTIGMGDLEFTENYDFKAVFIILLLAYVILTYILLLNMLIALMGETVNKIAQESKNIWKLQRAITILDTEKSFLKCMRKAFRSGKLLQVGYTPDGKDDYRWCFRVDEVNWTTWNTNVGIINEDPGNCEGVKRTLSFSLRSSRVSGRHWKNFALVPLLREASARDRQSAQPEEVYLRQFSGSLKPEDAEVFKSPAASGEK
#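 TRPV1-expressing cells were cultured overnight at 35.5C and loaded with Fluo-8 calcium dye for 40 to 90 min at room temperature. After a 10 s baseline, compound was added and calcium influx was read kinetically for 3 min (ex 480/em 520 nm).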
# Sfp PPTase inh: blocks B. subtilis Sfp PPTase activity | Biochemical Sfp PPTase activity, qHTS | Potency, µM, for inactives: max response, negative = inhibition, most hits filed as inhibitors | 310,000 tested, 3.5% active; active means well fitted inhibition curve with a large enough effect; inconclusive means small, poorly fitted or top-dose-only effect, or another doubt; inactive means no such curve, though single readings can be large or run the other way;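 further: the enzyme is Sfp with the accession as filed and its product quenches rhodamine fluorescence; potency means the concentration at half of the fitted maximal effect; 0% = enzyme reaction without inhibitor and -100% = no enzyme wells; top concentration of the series not given in the record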
#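 With Hepes-Na pH 7.6 buffer containing 10 mM MgCl2, Sfp (15 nM) modified BHQ-2-YbbR (12.5 uM) using rhodamine-CoA (5 uM). Two reads 30 minutes apart at 525/598 nm yielded each well's rate.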
# Starred values were filed as active, the others as inactive; ? = inconclusive; nt = not tested or not shown; [ ] = remark or other dose.
SMILES,CtBP-E1A blk,Menin MLL FP FL,gsp antag,gsp agonist,ClpP mod,TRPV1 potentiator,Sfp PPTase inh
Cc1c(Cl)cccc1NC(=S)NCCc1ccc(S(N)(=O)=O)cc1,0,0.4,-4%,-5%,nt,18,16%
CSc1cccc(NC(=O)CC2Oc3ccccc3NC2=O)c1 (stereo not given),nt,0.4,0%,16%,-2.3%,15,13%
O=C(CC1CCCCC1)Nc1nc2ccccc2s1,-4,0.9,-1%,-8%[15.4 µM],nt,1,20%
Nc1ccc([N+](=O)[O-])cc1C(=O)NNC(=O)c1ccco1,8,3.0,7%,-2%,0.3%,8,12%
Cc1cc(NCCCn2ccnc2)n2ncc(-c3ccccc3)c2n1,-16,?,-3%[15.4 µM],6%,-27%,-3,7%
O=C(CNC(=O)c1ccc(Br)cc1)NCC(=O)OCC(=O)c1ccccc1,9,0.0,11%,-23%,nt,2,6%
O=c1cc(-c2c(F)c(F)c(F)c(F)c2F)oc2ccccc12,12,-0.3,12%,12%,-0.2%,-25,4%
Cc1cc(=O)oc(C)c1C(=O)O,8,-0.3,2%,-13%,-3.0%,-4,13%
CCC(C)c1ccccc1NC(=O)c1cc2cccc([N+](=O)[O-])c2[nH]1 (stereo not given),-9,-0.4,-10%,-2%[15.4 µM],nt,4,7%
Cn1c(C(=O)N2CCN(c3ccc(Cl)cc3)CC2)cc2c(=O)[nH]c3ccccc3c21,-2,6.3,0%,29%,5.6%,-8,7%
CCCC(=O)Nc1ccccc1-c1nnc(SC)[nH]c1=O,-23,0.7,-4%,8%,-3.8%,nt,17%
O=C(Nc1ccc(-c2nc3ccccc3[nH]2)cc1)c1cccc(N2C(=O)CCC2=O)c1,-1,6.3,14%,-8%,34%,17,2%
COc1ccc(-c2csc(-c3cccs3)n2)c(OC)c1,38,0.5,-7%,-23%,?,14,-15%
COc1cc(C2NC(=O)NC(c3ccccc3)=C2C(C)=O)ccc1OCC#N (stereo not given),8,-2.1,-6%,-36%[inhibitor],1.5%,4,18%
CCN1CCN(C(=O)c2ccc(C)c(S(=O)(=O)Nc3cccc(C)c3)c2)CC1,-4,nt,3%,17%,-2.1%,-7,3%
O=C(/C=C/Nc1cccc(C(F)(F)F)c1)c1ccc(Oc2ncccn2)cc1,2,4.0,-16%,-1%,-9.6%,8,-3%
Cc1ccc(NC(=O)N2CCCCCC2)cc1,-7,nt,4%,0%,-2.1%,-10,6%
S=C1NC[C@H](c2ccccc2)N1CCCCC1CCCCC1,-1,3.8,6%,-13%,0.2%,-2,31%[activator]
CCN(CC(=O)Nc1ccccc1OC)C(=O)c1cc(-c2ccccc2)nn1-c1ccccc1,11,nt,-44%,1%,2.1%,-5,nt
O=C(Nc1ccccc1C(=O)Nc1ccccc1)c1ccccc1F,nt,0.5,-1%,?,-2.8%,-8,1%
COC(=O)C1=C(N)OC2=C(C(=O)CC(C)(C)C2)C1c1ccccc1OC (stereo not given),1,-1.1,1%,1%,-0.1%,5,12%
COc1ccc(CNc2oc(-c3cccc4ccccc34)nc2C#N)cc1,-9,0.4,17%,14%,-1.4%,7,14%
CCOC(=O)C1CCN(C(=O)CCCOc2ccccc2)CC1,10,3.1,-9%,5%,0.4%,-4,7%
Clc1ccccc1CSc1ncccn1,30,-0.1,1%,-37%[inhibitor],1.3%,-3,4%
COc1ccc(NC(=O)CN(C)C(=O)Cc2coc3cc(C)c(C)cc23)cc1,-3,nt,-12%,0%,-1.3%,-6,nt
O=C(CNC(=O)c1cccs1)Nc1ccc2c(c1)OCCO2,0,nt,4%,-23%,-3.5%,-3,nt
COc1ccc(CCNC(=O)CC2SC(N)=NC2=O)cc1OC (stereo not given),1,-1.3,3%,-20%[15.4 µM],nt,-10,23%
O=C(CCSc1nc(-c2ccco2)cc(C(F)(F)F)n1)NCC1CCCO1 (stereo not given),-4,1.9,2%,-8%,-4.3%,-21,3%
C=CCNC(=O)C(C#N)c1nc2ccccc2nc1N1CCN(Cc2ccccc2)CC1 (stereo not given),2,?,5%,-5%,-5.4%,-17,6%
CCOc1cc(/C=N/NC(=O)c2cccnc2)ccc1OCC(=O)N1CCOCC1,-6,6.4,6%,11%,-2.1%,1,17%
COc1ccc(NC(=O)C(=O)NCCCO)cc1Cl,2,-2.1,6%,1%[15.4 µM],nt,-8,17%
CCS(=O)(=O)Nc1ccc(C2=NN(C(=O)c3ccco3)C(c3ccc(C)cc3)C2)cc1 (stereo not given),-6,6.6,-23%,19%,-5.0%,13,18%
CC(=O)Nc1ccc(NC(=O)CCn2c(=S)oc3ccccc32)cc1,-7,1.6,4%,?,-0.8%,?,17%
CC(=O)Nc1ccc(S(=O)(=O)NC2CCS(=O)(=O)C2)cc1Cl (stereo not given),0,-0.5,11%,5%[15.4 µM],0.0%,9,10%
Cc1cc(C(=O)N2CCC(C(=O)O)CC2)c(C(F)(F)F)o1,2,3.3,8%,-6%[15.4 µM],-0.5%,11,15%
Cc1ccc(S(=O)(=O)NNC(=O)c2cccc(O)c2)cc1,4,0.0,7%,28%,nt,0,4%

# Individual results from the entries so far:
# C=CCNC(=O)C(C#N)c1nc2ccccc2nc1N1CCN(Cc2ccccc2)CC1 (stereo not given) @ ClpP mod = -5.4%
# COc1ccc(NC(=O)C(=O)NCCCO)cc1Cl @ TRPV1 potentiator = -8

# 3 compounds picked at random from those above:
SMILES,CtBP-E1A blk,Menin MLL FP FL,gsp antag,gsp agonist,ClpP mod,TRPV1 potentiator,Sfp PPTase inh
CC(=O)Nc1ccc(S(=O)(=O)NC2CCS(=O)(=O)C2)cc1Cl (stereo not given),0,-0.5,11%,5%[15.4 µM],0.0%,9,10%
Cc1cc(C(=O)N2CCC(C(=O)O)CC2)c(C(F)(F)F)o1,2,3.3,8%,-6%[15.4 µM],-0.5%,11,15%
CC(=O)Nc1ccc(NC(=O)CCn2c(=S)oc3ccccc32)cc1,-7,1.6,4%,?,-0.8%,?,17%

# Continued:
SMILES,CtBP-E1A blk,Menin MLL FP FL,gsp antag,gsp agonist,ClpP mod,TRPV1 potentiator,Sfp PPTase inh
COCC(=O)Nc1ccccc1C(=O)Nc1ccc(OC)cc1,-1,5.8,3%,-1%,0.1%,9,8%
O=C(Nc1ccc([N+](=O)[O-])cc1)c1cccc(S(=O)(=O)Nc2cccnc2)c1,1,-2.9,-17%,7%,-1.0%,4,0%
COc1ccc(CCNC(=O)Cn2nnc(C(=O)Nc3ccc(Br)cc3)c2N)cc1OC,-5,nt,-9%,-12%,-3.2%,2,-20%
O=C(NCCS(=O)(=O)N1CCN(c2ccccc2)CC1)c1ccco1,3,nt,4%,15%,1.5%,-19,nt
O=C(NCCc1nc2ccccc2[nH]1)/C(=C/c1ccco1)NC(=O)c1ccco1,29,7.8,7%,10%,-1.4%,5,-21%
O=C(Cn1cc([N+](=O)[O-])cn1)NCc1ccc(-n2cccn2)cc1,6,-0.7,-3%,-12%[15.4 µM],nt,?,-1%
CCCN1C(=O)c2ccccc2NC1c1ccc(Cl)c(Cl)c1 (stereo not given),nt,-1.1,-19%,-5%,4.0%,-7,1%
CCN(CC(=O)NC(C)C)C(=O)c1ccc(Cl)cc1,16,-0.1,13%,-4%[15.4 µM],1.5%,?,-2%
Cc1ccc(OCC(=O)NCCCNC(=O)c2cccnc2)cc1C,-11,-3.6,15%,24%,nt,3,-2%
CC[C@H]1C=C[C@@H](C(C(=O)OC)C(=O)OC)CN1C(C)=O,-21,nt,1%,nt,-0.9%,nt,nt
CCOc1ccc(Nc2nc3c(c(=O)[nH]2)CCCC3)cc1,-10,0.2,-11%,-17%,-2.6%,-5,2%
CC(C)c1ccc(/C=c2\sc3nc(-c4ccncc4)nn3c2=O)cc1,-3,4.3,3%,3%,-0.9%,?,-4%
CCCOc1ccc(-c2csc3ncn(Cc4ccc(C(=O)O)cc4)c(=O)c23)cc1,nt,3.3,?,-19%,-8.3%,-15,-12%
CCN(CC)S(=O)(=O)c1cc(C(=O)Nc2ccccc2[N+](=O)[O-])ccc1Cl,16,0.3,-9%,-20%[15.4 µM],1.6%,10,1%
Cc1ccc(/C=N/Nc2cc(C)nc(NCc3ccccc3)n2)cc1,-11,1.9,-30%,6%,nt,-16,16µM*

# A stretch of the results above, for reference:
SMILES,CtBP-E1A blk,Menin MLL FP FL,gsp antag,gsp agonist,ClpP mod,TRPV1 potentiator,Sfp PPTase inh
COCC(=O)Nc1ccccc1C(=O)Nc1ccc(OC)cc1,-1,5.8,3%,-1%,0.1%,9,8%
O=C(Nc1ccc([N+](=O)[O-])cc1)c1cccc(S(=O)(=O)Nc2cccnc2)c1,1,-2.9,-17%,7%,-1.0%,4,0%
COc1ccc(CCNC(=O)Cn2nnc(C(=O)Nc3ccc(Br)cc3)c2N)cc1OC,-5,nt,-9%,-12%,-3.2%,2,-20%
O=C(NCCS(=O)(=O)N1CCN(c2ccccc2)CC1)c1ccco1,3,nt,4%,15%,1.5%,-19,nt
